Screening data (PubChem)
gsp antag: gsp mutant antagonism; gsp-mutant cells, cAMP HTRF, 30 min; control for the full effect not named in the record; Potency, µM (doses to about 76.9 µM), for the others: top-dose activity change, negative = inhibition, actives largely listed as inhibitors; actives 0.4% (n = 340,000); active = falling curve of any shape with a large fitted effect; inconclusive = falling curve, mostly with a smaller effect; inactive = flat or rising curve; cell line not stated here;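 also: intracellular cAMP measured with PDE inhibitor Ro 20-1724 present during compound exposure; potency is read from the fitted curve at half-maximal effect; % is scaled to controls: 0 for no effect and ±100 for the full control effect; nearly all actives have a fitted effect of over 65% in size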
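Measurement of cellular cAMP by homogeneous time-resolved fluorescence following a 30 min compound exposure at 37C. The PDE inhibitor […] was present throughout; the assay buffer was DPBS with 0.05% BSA and 0.005% Tween 20.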
gsp ag: activates gsp, the McCune-Albright syndrome mutation; Potency, µM (top dose mostly 76.9 µM), for the others: at the highest dose activation (cAMP increase), most hits filed as activators; actives 0.13% (n = 340,000); gsp mutant cells, cAMP HTRF, 30 min; control for the full effect not named in the record; active = well fitted activation curve with a large enough effect; inconclusive = small, poorly fitted or top-dose-only effect, or another doubt; inactive = no such curve, though single readings can be large or run the other way; cell line not stated here;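 also: phosphodiesterase inhibitor Ro 20-1724 added with compounds to block cAMP breakdown; potency is read from the fitted curve at half-maximal effect; nearly all actives have a fitted effect of over 60% in size; about a fifth of the inactives were tested at one dose only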
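Cells in DMEM/10% FBS with G418 were pretreated with compounds in DMSO plus […] (300 uM stock) for 30 min at 37C. cAMP was measured by HTRF (cAMP-d2 plus anti-cAMP antibody-K) after 30 min at room temperature.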
D2 ag: agonists of human D2 dopamine receptor (beta-arrestin) | actives 0.084% (n = 360,000) | DiscoveRx PathHunter D2 beta-arrestin, luminescence, 90 min; 100% = 57 uM dopamine signal | P14416 | AID 624465 | activation, % (no concentration beside the values); in the data active = activation above about 40%; inconclusive = about 15% to 40%; inactive = below about 15%; also: compound concentration not given in the record; the text of the record calls up to 30% inactive
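DiscoveRx PathHunter D2 beta-arrestin cells (2,100/well) attached overnight, then compound-stimulated 90 min at 37 C in HBSS/10 mM HEPES/0.1% Tween-20 buffer; beta-galactosidase complementation read by luminescence after 1 h at ambient temperature. Dopamine 57 uM final (EC100) as control.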
CtBP-E1A blk: inhibitors of CtBP/E1A interaction. AlphaScreen GST-E1A/His-CtBP binding, 1536-well; hits give low values; control for the full effect not named in the record. activity change, % (concentration not given with the values). actives 0.49% (n = 340,000). AID 651724; in the data active means activity change below about -65%; inconclusive means about -30% to -65%; inactive means above about -30%; also: % is scaled to controls: 0 for no effect and ±100 for the full control effect
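AlphaScreen with 125 nM GST-E1A and 125 nM His-CtBP (5X stocks) in Tris pH 8.0, 300 mM NaCl, BSA, Tween 20, TCEP. Compounds preincubated 2 h at 37 deg C, then glutathione donor/nickel acceptor beads added for 1 h at 37 deg C in dark.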
Six1-Eya2 inh: blocks human Six1 binding to Eya2 | Q15475+O00167 | AlphaScreen GST-Six1/His-Eya2 binding, biochemical; hits give low values; control for the full effect not named in the record | activity change, % (test concentration not listed) | actives 0.56% (n = 360,000); in the data active = activity change below about -65%; inconclusive = about -30% to -65%; inactive = above about -30%; also: % is scaled to controls: 0 for no effect and ±100 for the full control effect; compound concentration not given in the record
Target sequence (O00167 whole entry, looked up): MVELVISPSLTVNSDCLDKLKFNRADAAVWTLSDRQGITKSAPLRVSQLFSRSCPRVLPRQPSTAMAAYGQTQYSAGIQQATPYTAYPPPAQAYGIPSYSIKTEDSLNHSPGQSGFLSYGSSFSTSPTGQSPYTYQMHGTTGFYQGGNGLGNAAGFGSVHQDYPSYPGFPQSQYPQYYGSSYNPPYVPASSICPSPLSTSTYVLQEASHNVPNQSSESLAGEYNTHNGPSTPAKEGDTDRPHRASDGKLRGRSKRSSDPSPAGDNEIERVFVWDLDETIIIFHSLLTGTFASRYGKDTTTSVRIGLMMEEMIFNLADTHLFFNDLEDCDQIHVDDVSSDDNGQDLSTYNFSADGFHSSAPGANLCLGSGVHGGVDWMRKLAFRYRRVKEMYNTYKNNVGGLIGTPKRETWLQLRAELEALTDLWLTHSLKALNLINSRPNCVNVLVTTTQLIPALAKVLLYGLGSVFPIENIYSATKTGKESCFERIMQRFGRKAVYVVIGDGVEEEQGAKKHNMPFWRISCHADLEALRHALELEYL
Target sequence (Q15475 whole entry, looked up): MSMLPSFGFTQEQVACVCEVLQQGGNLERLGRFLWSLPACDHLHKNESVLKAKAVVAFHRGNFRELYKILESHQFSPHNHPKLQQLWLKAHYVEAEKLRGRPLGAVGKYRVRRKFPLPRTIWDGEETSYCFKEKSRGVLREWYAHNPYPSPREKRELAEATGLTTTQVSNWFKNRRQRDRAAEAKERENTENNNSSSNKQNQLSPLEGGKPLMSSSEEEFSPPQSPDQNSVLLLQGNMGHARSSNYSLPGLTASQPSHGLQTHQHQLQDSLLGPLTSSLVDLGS
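AlphaScreen luminescence read after one hour at 37 °C in darkness. Pin-transferred compounds met GST-Six1 and His-Eya2 protein (5X stock 250 nM/500 nM) plus glutathione donor and Ni-chelate acceptor beads (5X, 50 ug/mL).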
D2 potentiator: human D2 receptor positive allosteric modulation. P14416. DiscoveRx D2 beta-arrestin cells, luminescence, 90 min; 100% = 57 uM dopamine signal. potentiation, % (concentration not given with the values). actives 0.23% (n = 360,000). AID 624464; active = potentiation of 50% or more; inconclusive = 30% to 50%; inactive = 30% or less;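 also: compound concentration not given in the record; tested on top of an EC20 dose of dopamine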
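D2 cells co-treated with compound plus 50 nM dopamine (EC20) for 90 min at 37 deg C to detect potentiation. Beta-arrestin recruitment was read as enzyme-fragment luminescence after 1 h at ambient temperature. Full response was set by 57 uM dopamine.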
* marks the source's active call; other numbers are inactive results; ? = inconclusive; / = not tested or not shown; [ ] = remark or other dose. This is a random part of the collection; about 1.4% have a hit in one of these screens.

molecule,D2 ag,D2 potentiator,Six1-Eya2 inh,gsp antag,gsp ag,CtBP-E1A blk
COc1ccccc1N1CCN(S(=O)(=O)CCNC(=O)c2cccs2)CC1,3.7,-15,3,/,8%,0
CC1(C(=O)Nc2ccc3c(c2)OCCO3)CCN1C(=O)CC1CCCC1 (stereo not given),-3.6,-14,2,/,/,2
Cn1cnc2c(N3CCCCC3)nccc21,-3.3,-3,3,3%,23%,-2
O=C(O)CCn1c(=O)[nH]c(=O)n(CCC(=O)O)c1=O,-1.2,-2,-1,/,-7%[15.4 µM],-18
CCCn1c(SCC(=O)N2CC(=O)Nc3ccccc32)nc2ccccc21,-4.9,-12,13,5%,6%[15.4 µM],1
CCC(C)NC(=O)c1ccccc1NC(=O)/C(=C/c1ccc(OC)cc1)c1ccccc1 (stereo not given),-6.8,-9,3,-20%,10%[15.4 µM],2
O=C(CC(c1ccco1)C1CCCCC1=O)c1ccco1 (stereo not given),1.9,-5,-1,0%,11%,3
CCc1cccc(Oc2nn[nH]n2)c1,0.4,-7,0,-2%,-27%,-4

More structures
molecule,D2 ag,D2 potentiator,Six1-Eya2 inh,gsp antag,gsp ag,CtBP-E1A blk
O=C(N/C(=C\c1cccc(Br)c1)C(=O)N1CCCCC1)c1ccco1,-4.8,-3,4,-4%,12%,-3
COc1ccccc1-c1coc2c(CN3CCN(CCO)CC3)c(O)ccc2c1=O,-1.5,-10,-1,6%,?,1
Cn1c(=O)c2c(nc(Cl)n2Cc2ccc(Cl)c(Cl)c2)n(C)c1=O,-0.8,3,4,-9%,-22%,3
CCCCCn1c(=O)[nH]c2cc(C(=O)N3CCN(CC)CC3)ccc2c1=O,-0.7,-6,0,2%,-7%,0
COc1cc(-c2[nH]ncc2CN2CCSCC2)cc(OC)c1OC,0.6,-1,-4,-2%,13%[15.4 µM],-9
COc1ccc(NC(=O)C2CCN(S(=O)(=O)c3ccc(N4CCCC4=O)cc3)CC2)c(OC)c1,-0.1,-16,6,-14%,-8%,4
CCCN(CCC)S(=O)(=O)c1ccc(NC(=O)c2cc(C(=O)OC)cc([N+](=O)[O-])c2)cc1,1.9,-19,8,6%,7%,13
O=C(CCCN1C(=O)/C(=C/c2ccccc2Cl)SC1=S)N1CCOCC1,3.5,-15,-9,-27%,-47%[inhibitor],-1

The listing continues.
molecule,D2 ag,D2 potentiator,Six1-Eya2 inh,gsp antag,gsp ag,CtBP-E1A blk
O=C(c1ccc(N2CCOCC2)c([N+](=O)[O-])c1)N1CCN(S(=O)(=O)c2cccs2)CC1,0.4,-8,-11,-18%,9%,3
Cc1ccc(NC(=O)COC(=O)Cn2cnc3ccccc32)c([N+](=O)[O-])c1,0.6,1,28,3%,-6%[15.4 µM],-21
O=C(NCCS(=O)CCNC(=O)C(F)(F)F)C(F)(F)F,-2.6,1,0,12%,-4%,10
CCc1c(C(=O)O)[nH]c2ccc(Br)cc12,-1.5,9,-2,11%,4µM*,1
Cc1ccc(N=Nc2c(N)n[nH]c2N)cc1,8.2,-3,-10,10%,-15%[15.4 µM],-11
O=C(CCNC(=O)N1CC(=O)Nc2ccccc21)NCc1cccc(C(F)(F)F)c1,-2.4,-20,-2,/,-42%[inhibitor],-3
Brc1ccc(-c2csc(NC3=NCCCCC3)n2)cc1,-9.1,-10,-9,-1%,1%[15.4 µM],-1
O=S(=O)(c1ccc(NC(=S)NCc2ccncc2)cc1)N1CCCCC1,-3.5,-28,5,0%,9%,-19

(cont.)
molecule,D2 ag,D2 potentiator,Six1-Eya2 inh,gsp antag,gsp ag,CtBP-E1A blk
CC1CCCN(CCCNC(=O)C2CCCN(c3ncnc4c3nc3n4CCCCC3)C2)C1 (stereo not given),-1.8,-17,-2,0%,2%,0
CC1CCCCC1NC(=O)CN(C)S(=O)(=O)c1ccc2c(c1)c(=O)n(C)c(=O)n2C (stereo not given),-4.9,-9,-7,-4%,27%,0
CCOc1ccc(OCCCCN(C)C)cc1,-8.3,2,-3,-1%,0%,3
CCOC(=O)CN1C(=O)N[C@@H](c2cccc(C(F)(F)F)c2)C(C(=O)OC)=C1C,-5.0,0,0,11%,4%,5
C=CCn1c(-c2ccc(Cl)cc2)cnc1SC(C)C(N)=O (stereo not given),-6.1,-4,-1,-12%,-16%,0
O=C(c1ccc([N+](=O)[O-])o1)N1CCN(c2nc3ccc(F)cc3s2)CC1,2.7,-4,19,-16%,-12%[15.4 µM],18
CCN(CC)S(=O)(=O)c1ccc(OC)c(NC(=O)Cn2cnc3c2c(=O)n(C)c(=O)n3C)c1,4.2,-2,-1,15%,?,/
O=C1C(Cc2ccccc2)S/C(=N/N=C/c2ccco2)N1c1ccccc1 (stereo not given),-0.8,-18,-3,2%[15.4 µM],?,2

2 records drawn at random from the list so far:
molecule,D2 ag,D2 potentiator,Six1-Eya2 inh,gsp antag,gsp ag,CtBP-E1A blk
CC1CCCCC1NC(=O)CN(C)S(=O)(=O)c1ccc2c(c1)c(=O)n(C)c(=O)n2C (stereo not given),-4.9,-9,-7,-4%,27%,0
CC1CCCN(CCCNC(=O)C2CCCN(c3ncnc4c3nc3n4CCCCC3)C2)C1 (stereo not given),-1.8,-17,-2,0%,2%,0

4 compounds out of the list above, sorted by the value under gsp ag, highest first.
molecule,D2 ag,D2 potentiator,Six1-Eya2 inh,gsp antag,gsp ag,CtBP-E1A blk
CC1CCCCC1NC(=O)CN(C)S(=O)(=O)c1ccc2c(c1)c(=O)n(C)c(=O)n2C (stereo not given),-4.9,-9,-7,-4%,27%,0
CC1CCCN(CCCNC(=O)C2CCCN(c3ncnc4c3nc3n4CCCCC3)C2)C1 (stereo not given),-1.8,-17,-2,0%,2%,0
CCOc1ccc(OCCCCN(C)C)cc1,-8.3,2,-3,-1%,0%,3
C=CCn1c(-c2ccc(Cl)cc2)cnc1SC(C)C(N)=O (stereo not given),-6.1,-4,-1,-12%,-16%,0

Next section:
molecule,D2 ag,D2 potentiator,Six1-Eya2 inh,gsp antag,gsp ag,CtBP-E1A blk
OCCN(CC#CC(O)(c1ccccc1)c1ccccc1)CCO,6.2,-6,1,-3%,6%[15.4 µM],13
Cc1ccc(S(=O)(=O)Nc2ccc(C(=O)NCc3ccncc3)cc2)cc1,-2.6,-18,11,7%,-2%[15.4 µM],4
CC(C)(C)NCC(O)COc1ccccc1C(C)(C)C (stereo not given),-1.7,-10,2,13%,-10%,13
COc1ccc(CNC(=O)c2nnn(CC(=O)Nc3cc(C)cc(C)c3)c2N)cc1,-0.9,-2,-2,7%,1%,/
CCOc1ccccc1N(CC(=O)Nc1ccc(OC)cc1)S(=O)(=O)c1ccccc1,1.6,7,-2,?,?,/
Cc1ccc(CN(Cc2ccccc2)C(=S)Nc2ccccc2C)o1,-3.6,-3,-14,-14%,-8%[15.4 µM],-12
COc1ccc(CC(N)c2csc(NC(=O)NC(c3ccccc3)c3ccccc3)n2)cc1 (stereo not given),?,-5,-8,/,/,-14
CCOC(CCNC(=O)c1cn(-c2cccc(C)n2)cn1)OCC,0.6,-4,8,3%[15.4 µM],-3%,4

(next part)
molecule,D2 ag,D2 potentiator,Six1-Eya2 inh,gsp antag,gsp ag,CtBP-E1A blk
CCn1c(C(=O)NCCCN2CCc3ccccc3C2)cc2sccc21,-2.7,-9,-5,?,7%,-4
CC(SCC(=O)Nc1ccccc1Br)c1nc2ccccc2c(=O)[nH]1 (stereo not given),2.4,-24,35,3%,-4%[15.4 µM],9
S=c1ncc2[nH]c(=S)[nH]c2[nH]1,-7.9,-9,-21,-4%,?,0
Cc1ccc(S(=O)(=O)N2CCN(c3cnn(C)c(=O)c3Cl)CC2)cc1,1.6,-41,-1,/,25%[15.4 µM],6
Cn1c(=O)c2c(nc(N/N=C/c3cccs3)n2Cc2ccccc2)n(C)c1=O,2.3,5,1,6%,-18%,-8
Cc1onc(-c2ccccc2)c1C(=O)N(Cc1ccccn1)Cc1ccccn1,-1.0,-6,2,-2%,12%[15.4 µM],-1
CSc1ncnc2c1ncn2CCCNCc1ccco1,-1.3,-7,1,/,-75%,-20
COc1cccc(NC(=O)CN(C)C(=O)COc2cc(C)ccc2Cl)c1,-2.0,-68,-1,-2%,11%[15.4 µM],1

Next compounds.
molecule,D2 ag,D2 potentiator,Six1-Eya2 inh,gsp antag,gsp ag,CtBP-E1A blk
CC(=O)Nc1cc(-c2cccc(NS(C)(=O)=O)c2)cn2c(-c3cccc(C(C)=O)c3)cnc12,4.0,-3,-16,/,/,-20
CC(=O)c1ccc(N2CCN(S(=O)(=O)c3csc(C(N)=O)c3)CC2)cc1,2.8,-5,-2,-2%,0%,1
O=C(Nc1ccccc1)C1=C[C@H](c2ccccc2)C[C@H](OCc2ccc(CO)cc2)O1,-1.6,-5,-1,-14%,/,3
COCC(C)NC(=O)CCc1nnc(C2(c3ccc(Cl)cc3)CCC2)o1 (stereo not given),-0.9,0,-3,9%,23%,3
COc1ccc(CCNC(=O)CN(c2ccc(OC)c(OC)c2)S(=O)(=O)c2ccccc2)cc1OC,-0.8,-3,-4,-1%,18%,-20

Structural class, the compounds so far containing a furan ring, fused or not.
molecule,D2 ag,D2 potentiator,Six1-Eya2 inh,gsp antag,gsp ag,CtBP-E1A blk
O=C(CC(c1ccco1)C1CCCCC1=O)c1ccco1 (stereo not given),1.9,-5,-1,0%,11%,3
O=C(N/C(=C\c1cccc(Br)c1)C(=O)N1CCCCC1)c1ccco1,-4.8,-3,4,-4%,12%,-3
O=C(c1ccc([N+](=O)[O-])o1)N1CCN(c2nc3ccc(F)cc3s2)CC1,2.7,-4,19,-16%,-12%[15.4 µM],18
O=C1C(Cc2ccccc2)S/C(=N/N=C/c2ccco2)N1c1ccccc1 (stereo not given),-0.8,-18,-3,2%[15.4 µM],?,2
Cc1ccc(CN(Cc2ccccc2)C(=S)Nc2ccccc2C)o1,-3.6,-3,-14,-14%,-8%[15.4 µM],-12
CSc1ncnc2c1ncn2CCCNCc1ccco1,-1.3,-7,1,/,-75%,-20
